# ugtP null kill – growth inhibition of S. aureus ugtP deletion strain. hit rate 0.54% among 330,000. growth inhibition, % (test concentration not listed). S. aureus RN4220 ugtP deletion, OD600 growth, 16 h; some inactives read as strong as hits;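 active means z-score under -3 and OD600 up to 0.15 on both plates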;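 further: plate controls were untreated wells for no effect and antibiotic for full effect; wells of about 80 µL received 100 nL stock; the first replicate is given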
# BJeLR lethal – kills HRASV12-expressing BJeLR cells | inhibition, % (no concentration beside the values) | AID 1554 | BJeLR (HRASV12) viability, CellTiter-Glo ATP luminescence, 48 h; reference of the scale not given here | hit rate 0.17% among 300,000;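 active means replicate mean above 50%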;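 further: 50 nL library stock added to about 25 µL; numbers are from one replicate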
# Mtb hypoxia inh – Mtb hypoxia fluorescent reporter inhibition | M. tuberculosis hypoxia-regulated fluorescent reporter, fluorescence | fluorescence inhibition, % (test concentration not listed) | hit rate 0.1% among 300,000 | AID 1159583;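 active means 35 to 45% if threefold the growth effect, above 45% if 1.5-fold the growth effect; inactive means the rest, general growth blockers included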;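 further: wells of about 50 µL received 100 nL stock; 0% = vehicle wells and 100% = reference inhibitor wells; whole bacteria with a GFP reporter of the hypoxia response; strong numbers were not always called active; many hits fall short of the cut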
# Sa RN4220 lethal – S. aureus RN4220 growth inhibition. inhibition, % (test concentration not listed). OD600, 16 h. hit rate 0.33% among 330,000;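 active means z-score of -3 or lower and OD600 up to 0.18 on both plates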;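 further: plate controls were untreated cells for no effect and reference antibiotic for full effect; stock transfer was 100 nL into about 80 µL; one replicate is shown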
# Autofluor counter – compound fluorescence in toxin protease inhibitor counterscreen; hit rate 3.1% among 360,000; fluorescence intensity (concentration not given with the values); compound autofluorescence counterscreen, microsphere flow cytometry; stronger effect = higher value;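 active means at least 3 SD above the mean of all compounds, about 16000 in these data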;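 further: 100 nL of 1 mM stock went into each well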
# PrP 5UTR inh – inhibition of PrP 5' UTR reporter expression; cell-based PrP 5' UTR mRNA reporter, plate reader; inhibition, % (no concentration beside the values); hit rate 0.35% among 340,000;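 active means every replicate at 50% or more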;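 further: 0 = median of the neutral control wells; tested in H4 reporter cells; numbers are from one replicate; inactives centre near -14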
# Mtb hypoxia inh growth – second read-out of Mtb hypoxia inh, no call of its own (marks repeat the call); growth inhibition, %; measured here: M. tuberculosis growth (absorbance);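 0% = vehicle and 100% = reference antibiotic; read after six days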
# An asterisk follows results filed as active; nt = no result given.
# Results follow in this order: ugtP null kill, BJeLR lethal, Mtb hypoxia inh, Mtb hypoxia inh growth, Sa RN4220 lethal, Autofluor counter, PrP 5UTR inh
COc1cccc(Oc2nc(-c3ccccc3O)nc3ccccc23)c1
→ -2, 4, -1, 0, -3.8, 3877, -8
Cc1ccc(C=c2sc(=C(C#N)C(=O)N3CCCC3)n(Cc3ccco3)c2=O)s1
→ 2, nt, -2, -4, 5.6, nt, nt
CCN(CC)CCCN(Cc1cc2cc3c(cc2[nH]c1=O)OCO3)C(=S)NC
→ 0, 0, 9, 1, 2.5, 3205, -3
Cc1ccc(S(=O)(=O)N[C@H](C(=O)N2CCC(C(=O)N3CCC[C@H]3C(=O)O)CC2)C(C)C)cc1
→ -8, -5, 2, 12, -4.5, 3286, -21
COc1ccccc1NC(=O)C(C)N1CCN(C/C=C/c2ccccc2)CC1 (centres undefined)
→ 4, -4, nt, nt, -0.6, 4217, -6
CC(C)(C)S(=O)(=O)c1ccccc1C(=O)O
→ 2, 8, nt, nt, 1.5, 6265, -12
CCNC(=S)NNC(=O)c1cc(-c2cccc(C)c2)nc2ccccc12
→ -9, 26, 9, 6, 5.7, 10378, nt
Cc1ccc(C(=O)COC(=O)CN2C(=O)C3C4CC(C(Br)C4Br)C3C2=O)cc1 (centres undefined)
→ 3, -7, 0, 2, 2.5, 6092, -17
O=C(O)C1CCCN1C(=O)OCC1c2ccccc2-c2ccccc21 (centres undefined)
→ 12, 8, 4, 9, 2.2, 4518, -8
CCN=c1scc(C)n1/N=C/c1ccc(O)c(O)c1O
→ nt, 4, nt, nt, nt, 8839, 5
Cc1cc(C)n(CC2CC(=O)N(c3ccc(C)c(Cl)c3)C2=O)n1 (centres undefined)
→ 5, -5, 7, 4, 1.6, 2471, -12
CSc1ccccc1NC(=O)CSc1n[nH]c(N)n1
→ 0, 9, -3, 2, -0.7, 4457, -9
Cn1c(=O)c2c(nc(CN3CCC(C(N)=O)CC3)n2Cc2ccccc2Cl)n(C)c1=O
→ -7, 2, 0, 7, 5.6, 9300, -23
Cc1ccc(S(=O)(=O)N2CCOCC2)cc1C(=O)OCC(=O)Nc1ccc2c(c1)OCO2
→ -1, 1, 8, 11, 1.4, 3793, -70
Cc1cccc(OCCCCCn2ccnc2)c1
→ 2, 0, nt, nt, 2.4, 9148, -10
Cc1nc(NCC2CCCO2)c2oc3ccccc3c2n1 (centres undefined)
→ -4, 1, 5, 9, 2.0, 21375*, 6
O=C(NCc1ccc(F)cc1)C1CCC(=O)N1CCc1ccccc1 (centres undefined)
→ 5, 3, 1, 2, 1.2, 5869, -11
COCCn1c(-c2ccc(Cl)cc2Cl)nc2c(c(=O)c3ccccc3n2C)c1=O
→ -3, -18, 10, 8, 2.3, 2274, -22
CCOc1ccc2nc(NC(=O)CSC3=NCCS3)sc2c1
→ -1, -3, 16, 8, -8.4, 2875, -40
Cn1cnnc1Sc1ccc(C(=O)OCC(=O)NCC(F)(F)F)cc1[N+](=O)[O-]
→ 6, -8, 12, 2, 1.4, 6018, -3
CCOC(=O)C1C(=O)NC(SC)=C(C#N)C1c1ccccc1F (centres undefined)
→ 5, 6, 4, -1, 8.6, 22567*, -56
CN1CCN(c2nc3ccccn3c(=O)c2C=O)CC1
→ 8, -1, 14, 6, 4.2, 3814, -8
COc1ccc(C(=O)NNC(=O)CSc2nc3c(c(=O)n(C)c(=O)n3C)n2C)cc1
→ 9, 1, 12, 6, 6.6, 3866, -19
CCOc1ccc(OCC)c(NC(=O)CSc2nc3c(c(=O)n(C)c(=O)n3C)n2CC)c1
→ 4, -5, 7, 8, -0.2, 19457*, -4
O=C(N/N=C/c1ccc[nH]1)c1ccncc1
→ nt, 6, nt, nt, nt, 2228, -10
CNC(=O)CO/N=C/c1ccc(N(C)C)cc1
→ nt, -7, nt, nt, nt, 4072, -18
O=C(N/N=C/c1cccs1)c1c[nH]c2ccccc12
→ nt, -8, nt, nt, nt, 9564, -46
COc1ccc(Cl)cc1NC(=O)Cn1c(NCCO)nc2ccccc21
→ 3, -6, -2, 9, -2.1, 4945, -11
O=C(NNC(=S)Nc1ccc(Cl)c(Cl)c1)c1ccccn1
→ 33, 5, 4, 10, 50, 5174, 11
CC1C=C(C(=O)N2CCN(C)CC2)OC(OCc2ccc(CO)cc2)C1 (centres undefined)
→ -9, nt, 13, 8, 2.9, nt, nt
Cc1ccc(OC(=O)CCC(=O)OCCCC(F)(F)C(F)(F)F)cc1
→ 10, 5, 4, 6, 2.1, 24380*, -16
N#CCCC1CCCC=C1N(Cc1ccccc1)C(=O)C(Cl)Cl (centres undefined)
→ 6, 0, -8, -1, 3.1, 6260, -11
O=C1NC2(CCCCC2)NN1c1ccccc1
→ 2, -5, 6, 10, 1.1, 3018, -31
O=C(NNS(=O)(=O)c1ccc([N+](=O)[O-])cc1)c1ccc2ccccc2c1O
→ 11, nt, 14, 13, 4.1, 4912, -28
O=C1[C@@H]2[C@H](C(=O)N1O)[C@H]1C=C[C@@H]2C1
→ 6, -4, 9, 8, 3.7, 2565, 4
COc1ccc(NC(=O)Cn2c(=O)oc3cc(Cl)ccc32)c(OC)c1
→ 8, 8, 7, -1, 4.3, 3256, -16
CC(=NNC(=O)CN1CCOCC1)C(C)(C)C
→ 5, nt, 10, 17, 4.2, nt, nt
Cc1ccc2nc(Nc3ccc(F)cc3)c3nncn3c2c1
→ -13, 2, -3, 0, 7.4, 3548, -16
Cc1[nH]c2ccccc2c1C=NNC(=O)CNc1ccc2c(c1)OCO2
→ -15, nt, -1, 2, 1.8, nt, nt
Cc1ccc(C(=O)N2CCSC2=S)cc1
→ 2, -4, -7, -19, 1.7, 4204, -28

# Looked up above:
# CC(=NNC(=O)CN1CCOCC1)C(C)(C)C | Mtb hypoxia inh = 10
# Cc1ccc2nc(Nc3ccc(F)cc3)c3nncn3c2c1 | Mtb hypoxia inh = -3
# N#CCCC1CCCC=C1N(Cc1ccccc1)C(=O)C(Cl)Cl (centres undefined) | Mtb hypoxia inh growth = -1
# O=C(N/N=C/c1cccs1)c1c[nH]c2ccccc12 | Autofluor counter = 9564
# O=C1[C@@H]2[C@H](C(=O)N1O)[C@H]1C=C[C@@H]2C1 | Autofluor counter = 2565

# The results go on:
# Results follow in this order: ugtP null kill, BJeLR lethal, Mtb hypoxia inh, Mtb hypoxia inh growth, Sa RN4220 lethal, Autofluor counter, PrP 5UTR inh
CCOC(=O)C1=C(c2ccccc2)N=C2SCC(=O)N2C1c1ccc(OC)c(OC)c1 (centres undefined)
→ -4, -7, -1, 1, 4.2, 2462, 2
O=C(c1ccccc1F)N1CCN(S(=O)(=O)c2ccc(Br)cc2)CC1
→ 5, 3, 3, 2, 1.9, 5362, -15
Cc1cc(C)nc(NC(=O)CSc2nc3ccccc3s2)n1
→ 13, 1, 8, 5, 4.1, 15488, -62
O=C1CCCC2=C1C(c1ccc(Cl)cc1)n1c(sc(=Cc3ccc4ccncc4c3)c1=O)=N2 (centres undefined)
→ -4, nt, -3, 10, -3.7, nt, nt
CC(=O)C1=C(O)C(=O)N(Cc2ccccc2)C1c1cccs1 (centres undefined)
→ 7, -14, nt, nt, 0.2, 3516, -4
Cc1cccc(C)c1NC(=O)N1CCC(N2CCCCC2)CC1
→ 2, -12, 7, 12, 2.1, 2390, -15
Cc1cc(-n2c(C)cc(C(=O)CN3C(=O)C(=O)N(C)C3=O)c2C)no1
→ 12, nt, 12, 4, 5.4, 4373, -17
O=C(O)c1cn(-c2ccccc2)nc1C(=O)O
→ 4, -5, nt, nt, 1.6, 4351, -54
CC(C)NC(=O)NC(=O)COC(=O)c1ccc(S(=O)(=O)Nc2ccccc2)cc1
→ 2, -6, 7, 0, -2.0, 4706, -28
CC1CCN(S(=O)(=O)c2ccc(C(=O)Nc3nnc(C4CC4)o3)cc2)CC1
→ 23, -1, -1, 5, 48, 7104, -8
O=c1c2[nH]c3ccccc3c2ncn1C1CCCCC1
→ -12, 0, 5, 0, 4.4, 6185, -48
CC(C)(CNc1ccc([N+](=O)[O-])cc1Cl)CNS(C)(=O)=O
→ 10, -3, 5, 3, 4.7, 5540, -22
COc1ccc(S(=O)(=O)NCC(=O)NC2CC2)cc1OC
→ 14, 4, 5, -4, 5.9, 4257, 2
COc1ccc(CN2CCN(C(=O)C3CCC(CNS(=O)(=O)c4ccccc4)CC3)CC2)c(OC)c1OC (centres undefined)
→ -11, 15, -9, 4, 0.8, 4623, -18
Cc1ccc(C=Nn2c(-c3ccncc3)n[nH]c2=S)o1
→ 6, nt, -9, -9, 5.6, nt, nt
COc1ccccc1N1CCN(C2CCCN(C(=O)CCc3ccccn3)C2)CC1 (centres undefined)
→ 3, 3, 6, 7, 2.5, 6243, -4
CC(C)(C)OC(=O)NCCCCC(C(=O)N1CCN(C(=O)OC(C)(C)C)CC1)n1cc(C(CO)NC(=O)OC(C)(C)C)nn1 (centres undefined)
→ 13, nt, 0, -14, 7.5, nt, nt
CC(C)Cn1c(N)c(C(=O)COC(=O)CN2C(=O)C3CC=CCC3C2=O)c(=O)n(C)c1=O (centres undefined)
→ 7, 7, 1, 4, -1.3, 4560, -36
O=C(NCc1ccccc1)c1ccc(/C=N/O)nc1
→ nt, 1, nt, nt, nt, 9459, -31
Cc1cc(Cl)nc(NC(=O)Nc2cccc(Cl)c2)n1
→ 4, -8, 2, 7, 4.8, 3435, -39
NS(=O)(=O)c1ccc(NC(=O)COC(=O)c2ccc(S(=O)(=O)N3CCOCC3)cc2)cc1
→ 2, nt, 9, 12, 3.6, 3541, -25
CC(C)NC(=O)c1ccccc1NC(=O)C1CCCO1 (centres undefined)
→ -4, -1, -1, 10, 2.0, 11081, -15
COc1cccc(NC(C)C(=O)N2CC(C)OC(C)C2)c1 (centres undefined)
→ -3, 0, 6, 3, 3.4, 23137*, -29
Cc1ccc2c(c1)N(CCC(=O)NCC1CCCO1)C(=O)CO2 (centres undefined)
→ -11, 1, -5, -2, -7.9, 4222, -23
c1ccc2c(c1)CN1CCCC1=N2
→ -2, -1, 1, -5, 1.2, 2965, nt
Cc1ccnc(NS(=O)(=O)c2ccc(NC(=O)CC(C)c3ccccc3)cc2)n1 (centres undefined)
→ -8, 5, 17, 2, 0.9, 5292, -41
O=C(Nc1ccc(N2CCCC2)c(Cl)c1)c1ccc([N+](=O)[O-])cc1
→ -2, -1, -4, 2, 6.5, 2293, -28
COCCN(C(=O)c1sc2ccccc2c1Cl)c1c(N)n(CC(C)C)c(=O)[nH]c1=O
→ -2, nt, -11, -21, 1.8, 2743, -6
CCc1ccc(NC(=O)CSCCN2C(=O)c3ccccc3C2=O)cc1
→ 13, -2, -2, -8, 2.8, 2827, -11
O=C(O)Cc1ccc(NC(=O)Cc2ccc3ccccc3c2)cc1
→ 6, -1, 15, 8, 0.5, 3383, 1
O=[N+]([O-])c1ccc(S(=O)(=O)NN=Cc2ccco2)cc1
→ 9, nt, -4, -4, 2.1, nt, nt
O=C(NS(=O)(=O)Oc1cccc(Cl)c1Cl)OC[C@@H]1CCCN2CCCCC12 (some centres undefined)
→ 15, -5, -4, -3, 6.2, 2677, -40
COCCOc1ccc(C(F)(F)F)cc1NC(=O)COC(=O)C12CC3CC(CC(O)(C3)C1)C2
→ 3, -16, 1, 1, 2.4, 5016, -11

# 4 entries picked at random from the list so far:
# Results follow in this order: ugtP null kill, BJeLR lethal, Mtb hypoxia inh, Mtb hypoxia inh growth, Sa RN4220 lethal, Autofluor counter, PrP 5UTR inh
COc1cccc(NC(C)C(=O)N2CC(C)OC(C)C2)c1 (centres undefined)
→ -3, 0, 6, 3, 3.4, 23137*, -29
COCCN(C(=O)c1sc2ccccc2c1Cl)c1c(N)n(CC(C)C)c(=O)[nH]c1=O
→ -2, nt, -11, -21, 1.8, 2743, -6
Cc1ccnc(NS(=O)(=O)c2ccc(NC(=O)CC(C)c3ccccc3)cc2)n1 (centres undefined)
→ -8, 5, 17, 2, 0.9, 5292, -41
c1ccc2c(c1)CN1CCCC1=N2
→ -2, -1, 1, -5, 1.2, 2965, nt
